# Source: PubChem BioAssay
# rRNA inh HTS = inhibits bacterial ribosomal RNA function over humanized ribosomes; E. coli WT GFP vs humanized-ribosome RFP mutants, fluorescence, 24 h; stronger effect = lower value; DMSO median 0, no signal -100; AID 720706; GFP signal change (wild-type ribosome), % (concentration not given with the values); hit rate 1.6% among 350,000;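 active = significant combined selectivity score with lowered wild-type GFP, culture density cut under 30%, mutant RFP and density less affected; inactive = any of these conditions unmet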; note: one replicate is shown; some compounds called inactive have numbers as strong as hits
# AF4-AF9 inh = blocks AF4 peptide binding to human AF9. P42568. AlphaScreen, biotin-AF4 peptide binding to FLAG-AF9. inhibition, % at 10 µM. hit rate 0.47% among 350,000. AID 651704;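 active = every replicate reaching a set inhibition limit, whatever the replicate mean, cut at about 25% in these data; inconclusive = mean inhibition reaches that limit but some replicates miss it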;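 note: 0% = plate neutral control median and 100% = total signal loss; the record names both 10 and 1 µM as test concentration; the first replicate is given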
# Target sequence (P42568 whole entry, looked up): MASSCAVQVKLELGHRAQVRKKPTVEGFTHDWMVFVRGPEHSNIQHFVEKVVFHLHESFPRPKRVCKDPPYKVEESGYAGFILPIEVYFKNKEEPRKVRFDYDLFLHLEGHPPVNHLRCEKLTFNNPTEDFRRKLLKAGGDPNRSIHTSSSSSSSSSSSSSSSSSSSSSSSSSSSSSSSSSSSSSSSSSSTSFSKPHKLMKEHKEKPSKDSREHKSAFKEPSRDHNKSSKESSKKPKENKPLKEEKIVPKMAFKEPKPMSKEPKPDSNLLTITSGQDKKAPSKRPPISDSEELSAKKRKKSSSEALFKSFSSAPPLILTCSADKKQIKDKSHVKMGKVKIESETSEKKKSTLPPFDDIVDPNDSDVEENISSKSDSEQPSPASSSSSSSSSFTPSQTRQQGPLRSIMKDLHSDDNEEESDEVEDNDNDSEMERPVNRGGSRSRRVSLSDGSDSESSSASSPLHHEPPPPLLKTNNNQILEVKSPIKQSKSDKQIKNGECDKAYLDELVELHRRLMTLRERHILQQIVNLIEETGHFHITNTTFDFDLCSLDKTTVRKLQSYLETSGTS
# rRNA inh HTS OD600 = further read-out of rRNA inh HTS, marked with its call; OD600 change, %; measured here: OD600 growth;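 optical density of the mix in the first replicate; 0 = DMSO median and -100 = no signal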
# rRNA inh HTS RFP = also measured in rRNA inh HTS; calls as there; RFP signal change, %; measured here: RFP humanized mutant strains;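 first replicate; 0 = DMSO median and -100 = no signal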
# * marks the source's active call; other numbers are inactive results; ? = inconclusive. The list is partial. The share of hits here may be higher or lower than overall.
# The first 3 compounds, ahead of the listing:
SMILES,rRNA inh HTS,rRNA inh HTS OD600,rRNA inh HTS RFP,AF4-AF9 inh
C[C@H](CO)N1C[C@H](C)[C@@H](CN(C)S(=O)(=O)c2ccc([N+](=O)[O-])cc2)OCc2ccccc2-c2c(n(C)c3ccccc23)C1=O,0,2,1.7,-1.3
O=C(Nc1cccc(Cl)c1)N[C@@H]1CC[C@H](CCNC(=O)C2CC2)O[C@H]1CO,-4,-2,0.1,0.9
Cn1cnc(S(=O)(=O)N[C@@H]2CC[C@@H](CC(=O)Nc3ccccc3)O[C@@H]2CO)c1,2,2,-0.9,-2.4

# This part in full, from the first entry:
SMILES,rRNA inh HTS,rRNA inh HTS OD600,rRNA inh HTS RFP,AF4-AF9 inh
C[C@H](CO)N1C[C@H](C)[C@@H](CN(C)S(=O)(=O)c2ccc([N+](=O)[O-])cc2)OCc2ccccc2-c2c(n(C)c3ccccc23)C1=O,0,2,1.7,-1.3
O=C(Nc1cccc(Cl)c1)N[C@@H]1CC[C@H](CCNC(=O)C2CC2)O[C@H]1CO,-4,-2,0.1,0.9
Cn1cnc(S(=O)(=O)N[C@@H]2CC[C@@H](CC(=O)Nc3ccccc3)O[C@@H]2CO)c1,2,2,-0.9,-2.4
O=C(C[C@H]1C[C@@H]2c3cc(NC(=O)c4ccc5c(c4)OCO5)ccc3O[C@@H]2[C@@H](CO)O1)NCc1ccccn1,-5,-3,-0.4,2.2
Cc1ccc(S(=O)(=O)Nc2ccc3c(c2)C(=O)N([C@@H](C)CO)C[C@@H](C)[C@H](CN(C)C(=O)Nc2ccc(F)cc2)OCCCC[C@@H](C)O3)cc1,1,3,-0.1,1.3
CC(C)C1C(=O)N(Cc2cn(Cc3ccco3)nn2)CCS(=O)(=O)N1Cc1ccc(-c2cccc(N(C)C)c2)cc1 (configuration not stated),4,8,9.0,-0.1
O=C(NC1CCCCC1)N1CC(=O)N2[C@@H](CO)[C@@H](c3ccc(C4=CCCC4)cc3)[C@@H]2C1,4,19,1.0,-2.7
COc1ccccc1-c1ccc2n(c1=O)C[C@H]1[C@H](CO)[C@@H](C(=O)N(C)C)N(C(=O)c3cccnc3)[C@@H]21,4,-2,1.6,-4.2
CCCNC(=O)[C@@H]1[C@@H](CO)[C@@H]2Cn3c(ccc(-c4ccccc4OC)c3=O)[C@@H]2N1S(C)(=O)=O,-1,-2,-0.1,-0.2
CCC(=O)N1[C@H](CN(CC)C(=O)c2ccc(F)cc2)[C@H](c2ccccc2)[C@@H]1CO,-1,-1,-1.2,-1.3
CC(=O)Nc1cc(-c2cccc(C(=O)NCCN(C)C)c2)cn2c(-c3ccc(F)c(Cl)c3)cnc12,-32,-69,16,8.7
CCC(=O)N1C[C@@H](O)COC[C@H]2O[C@H](CC(=O)NCc3ccc(Oc4ccccc4)cc3)CC[C@@H]21,0,-21,4.6,-1.9
C[C@@H]1CN([C@H](C)CO)C(=O)c2cc(NC(=O)NC3CCCCC3)ccc2O[C@H]1CN(C)Cc1ccc(Cl)c(Cl)c1,-8,-2,0.2,-1.2
O=C(C[C@@H]1CC[C@H]2[C@@H](COC[C@H](O)CN2C(=O)c2ccccc2F)O1)N1CCOCC1,3,8,2.2,-5.2
COc1cccc(C#Cc2ccc3c(c2)O[C@@H](CN(C)C(C)=O)[C@H](C)CN([C@H](C)CO)S3(=O)=O)c1,-2,-17,3.3,3.7
C[C@H]1CN([C@@H](C)CO)C(=O)c2cc(-c3ccncc3)cnc2O[C@@H]1CN(C)C(=O)CN1CCOCC1,4,15,-2.0,-0.3
COc1cccc(S(=O)(=O)Nc2ccc3c(c2)[C@H]2C[C@H](CC(=O)O)O[C@@H](CO)[C@H]2O3)c1,2,0,-1.9,-0.2
CCCNC(=O)N1[C@H](C#N)[C@@H](c2ccc(-c3ccccc3F)cc2)[C@@H]1CO,-2,-41,8.9,0.9
CC(O)(c1cccc(F)c1)c1nc(-c2ccc3c(c2)OCO3)cs1 (configuration not stated),-61,-80,-18,-1.0
COc1cccc(S(=O)(=O)N[C@@H]2CC[C@@H](CC(=O)NC3CCC3)O[C@@H]2CO)c1,0,5,-0.9,-1.2
C/C(=N/NS(=O)(=O)c1ccc(Br)cc1)c1cccc(NC(=O)C2CC2)c1,-1,-9,-0.5,-1.2
N#Cc1ccc(C(C(=O)NCc2ccccc2)n2c(=O)c(-c3ccco3)nc3ccccc32)cc1 (configuration not stated),5,20,5.0,0.2
CCCc1cn(CC[C@@H]2CC[C@H](NC(=O)C3CCC3)[C@H](CO)O2)nn1,-1,6,-0.8,-1.9
COc1cccc(CNC(=O)[C@@H]2[C@@H](CO)[C@@H]3Cn4c(cccc4=O)[C@H]2N3C(=O)C2CCCCC2)c1,1,13,-2.1,-1.6
COc1ccc2c3c(n(C)c2c1)[C@@H](CO)N(S(C)(=O)=O)CC31CCN(Cc2cccnc2)CC1,-3,8,-3.5,6.6

# Next records.
SMILES,rRNA inh HTS,rRNA inh HTS OD600,rRNA inh HTS RFP,AF4-AF9 inh
COc1ccc(NC(=O)Nc2ccc3c(c2)C(=O)N([C@H](C)CO)C[C@H](C)[C@@H](CN(C)S(=O)(=O)c2ccc(C)cc2)OCCCC[C@@H](C)O3)cc1,0,8,-2.2,-7.7
O=C1[C@@H]2[C@H](C(=O)N1CC(O)COCc1ccccc1)C1C=C[C@H]2C1 (some centres not stated),10,7,3.8,-1.7
C[C@@H]1CN([C@H](C)CO)C(=O)c2cc(NC(=O)Cc3ccccc3)ccc2O[C@@H]1CN(C)C(=O)Nc1ccc2c(c1)OCO2,2,7,2.1,-1.3
OC[C@@H]1[C@@H](c2ccc(C#CC3CCCC3)cc2)[C@H]2CN(CCC(F)(F)F)CCCCN12,-56,-76,-11,23
C[C@@H]1CCCCO[C@@H](CN(C)Cc2ccccc2)[C@H](C)CN([C@@H](C)CO)C(=O)c2cc(NC(=O)Nc3cccc4ccccc34)ccc2O1,-5,-14,6.7,11
C[C@H]1CN([C@@H](C)CO)C(=O)c2cc(C3=CCCC3)cnc2O[C@@H]1CN(C)C(=O)c1ccc(F)cc1,-2,11,-0.7,-1.3
CCc1nc2c(OCC(=O)C(C)(C)C)cccn2c1N(C=O)Cc1ccccc1,2,2,-1.5,1.7
Cc1cc2c(Nc3ccccc3O)ncnc2s1,0,-10,0.9,3.6
C[C@@H]1CN([C@H](C)CO)C(=O)Cc2cc(NC(=O)c3ccncc3)ccc2O[C@H]1CN(C)Cc1ccc(C(F)(F)F)cc1,-6,-8,-0.7,1.6
C[C@H](CO)N1C[C@H](C)[C@H](CN(C)Cc2ccc(C(F)(F)F)cc2)Oc2ccc(NC(=O)Nc3ccccc3)cc2CC1=O,-1,-1,2.6,0.3
C[C@H]1CN([C@@H](C)CO)C(=O)Cc2cc(NC(=O)CCCCCC(=O)Nc3ccccc3N)ccc2O[C@@H]1CN(C)Cc1ccccc1,-1,12,-0.2,-3.5
O=C(O)C[C@H]1C=C[C@H](NC(=O)Nc2cc(F)ccc2F)[C@H](CO)O1,1,7,-0.1,0.1
CCC(=O)N1CC(=O)N2[C@H](CO)[C@@H](c3ccc(-c4ccccc4C)cc3)[C@H]2C1,-2,2,0.6,3.1
C[C@H]1CN([C@@H](C)CO)C(=O)c2ccccc2-c2ccccc2CO[C@@H]1CN(C)C(=O)C1CC1,3,4,-5.1,-0.8
C[C@@H]1CCCCO[C@H](CN(C)Cc2ccncc2)[C@@H](C)CN([C@@H](C)CO)C(=O)c2cc(NS(=O)(=O)c3ccc(F)cc3)ccc2O1,-3,-8,-0.1,-0.5
CO[C@@H]1CN(C)C(=O)c2cc(NC(=O)NC3CCCCC3)ccc2OC[C@H](C)N(CC2CC2)C[C@@H]1C,5,8,-3.2,-1.9
Cn1c(CCCNC(=O)c2ccco2)nc2ccccc21,0,1,-1.4,?
C[C@@H]1CN([C@H](C)CO)C(=O)c2cc(C3=CCCC3)cnc2O[C@@H]1CN(C)C(=O)CN1CCOCC1,2,-1,-2.1,-1.2
O=C(C1CCOCC1)N1C[C@H]2[C@@H](c3ccccc31)[C@H](CO)N2Cc1ccccc1,-1,-1,0.2,-2.0
NS(=O)(=O)c1ccc(NC(=O)CN(C(=O)C(F)(F)F)C2CCCC2)cc1,7,10,0.9,0.3
CNC(=O)C[C@@H]1CC[C@@H]2[C@@H](COc3ccc(NC(=O)Nc4cccc(C)c4)cc3C(=O)N2C)O1,-1,2,3.2,1.3
COc1ccc(S(=O)(=O)N(C)C[C@H]2OCCCC[C@@H](C)Oc3ccc(NC(=O)CCCN(C)C)cc3C(=O)N([C@H](C)CO)C[C@@H]2C)cc1,1,11,0.8,1.1
CCOCCC(=O)Nc1ccc2c(c1)c(=O)n(C)n2-c1ccc2ccccc2c1,1,-1,4.3,-1.2
O=C(C[C@H]1C=C[C@H](NC(=O)Nc2ccccc2)[C@H](CO)O1)NCc1ccccn1,-5,-9,-2.3,0.2
C[C@@H]1CN([C@@H](C)CO)C(=O)c2cccc(NC(=O)c3ccc(-c4nccs4)cc3)c2O[C@H]1CN(C)CC1CC1,-5,-10,-0.2,2.0

# (further entries)
SMILES,rRNA inh HTS,rRNA inh HTS OD600,rRNA inh HTS RFP,AF4-AF9 inh
COc1ccc(S(=O)(=O)Nc2ccc3c(c2)C(=O)N([C@@H](C)CO)C[C@H](C)[C@H](CN(C)S(=O)(=O)c2ccccc2)OCCCC[C@@H](C)O3)cc1,-2,-1,-0.1,-1.2
CCCC#Cc1ccc2c(c1)O[C@H](CN(C)C(=O)NC(C)C)[C@H](C)CN([C@H](C)CO)S2(=O)=O,-5,-9,-1.6,0.6
Cc1ccccc1-c1cc2nc(NCCN3CCNC3=O)n(C)c(=O)c2s1,-18,-16,0.4,0.8
O=C(c1ccc(F)cc1)N1CC(=O)N2[C@H](C1)[C@@H](c1ccc(C#CCC3CCCC3)cc1)[C@@H]2CO,6,15,-1.5,-2.8
CCOc1ccc(NC(=O)CN2C(=O)c3cccc4cccc2c34)cc1,14,10,2.0,-2.5
CS(=O)(=O)Nc1ccc2c(c1)[C@@H]1C[C@@H](CC(=O)NCc3ccc(Oc4ccccc4)cc3)O[C@H](CO)[C@@H]1O2,6,-15,34,-0.3
COc1cccc(NC(=O)N2CC3(C2)[C@H](c2ccccc2)[C@@H](CO)N3C(=O)C2CCC2)c1,-7,-2,3.6,1.7
OC(c1ccc(F)cc1)c1ncc(-c2ccc(Oc3ccccc3)cc2)[nH]1 (configuration not stated),-61,-82,-19,8.7
CN(C)C(=O)c1cccc(-c2ccc3nncn3c2)c1,12,14,3.7,2.2
Cc1ccc(S(=O)(=O)N(C)C[C@@H]2Oc3ncc(C#CC4(O)CCCC4)cc3C(=O)N([C@@H](C)CO)C[C@H]2C)cc1,2,2,2.0,3.4
CN1CCCCN2[C@H](CO)[C@H](c3ccc(-c4ccc(F)cc4)cc3)[C@@H]2C1,4,2,-2.5,-6.3
CCNC(=O)C[C@@H]1C=C[C@@H](NS(=O)(=O)c2ccc(F)cc2)[C@H](CO)O1,0,1,-2.1,-0.3
Cc1ccc(S(=O)(=O)N(C)C[C@H]2Oc3ccc(NC(=O)Nc4ccc5c(c4)OCO5)cc3C(=O)N([C@@H](C)CO)C[C@@H]2C)cc1,1,3,2.8,8.1
CCOC(=O)c1ccn(S(=O)(=O)c2ccc(C)cc2)c1-c1ccccc1,-4,-26,-5.7,-2.4
C[C@@H]1CN([C@@H](C)CO)S(=O)(=O)c2ccc(C#Cc3cccnc3)cc2O[C@H]1CN(C)C(=O)Nc1ccc2c(c1)OCO2,-6,-4,-1.3,-8.4
Cc1cccc(-c2ccc([C@@H]3[C@@H](CO)N4CCCCN(CCC(F)(F)F)C[C@H]34)cc2)c1,-58,-74,-12,19
CC1(C)CC(=O)C=C(c2ccccc2-c2cccc(C(N)=O)c2)C1=O,-29,-66,7.8,1.6
CCCCC[C@@H](C)N1C[C@H](COCc2ccccc2)Oc2cc(N3CCC[C@H]3C(N)=O)ccc2S1(=O)=O,4,-1,4.0,-0.3
C[C@@H]1CN([C@@H](C)CO)C(=O)c2cc(Br)cnc2O[C@@H]1CN(C)C(=O)c1ccccn1,2,0,-1.9,-2.0
COc1ccc(OC)c(S(=O)(=O)NC(=O)C2(C)CCN2C(=O)Cc2ccccc2Cl)c1 (configuration not stated),17,10,3.8,-2.5
C[C@@H]1CN([C@H](C)CO)C(=O)c2cc(C#Cc3ccccn3)cnc2O[C@H]1CN(C)CC1CCOCC1,3,10,0.3,1.3
CN(CC(=O)Nc1ccc(Cl)c(C(F)(F)F)c1)C(=O)c1ccc(S(=O)(=O)N2CCOCC2)cc1,-2,-23,-2.2,0.4

# Some of these compounds in order of SMILES length, rising:
SMILES,rRNA inh HTS,rRNA inh HTS OD600,rRNA inh HTS RFP,AF4-AF9 inh
COc1cccc(NC(=O)N2CC3(C2)[C@H](c2ccccc2)[C@@H](CO)N3C(=O)C2CCC2)c1,-7,-2,3.6,1.7
Cc1ccc(S(=O)(=O)N(C)C[C@@H]2Oc3ncc(C#CC4(O)CCCC4)cc3C(=O)N([C@@H](C)CO)C[C@H]2C)cc1,2,2,2.0,3.4
Cc1ccc(S(=O)(=O)N(C)C[C@H]2Oc3ccc(NC(=O)Nc4ccc5c(c4)OCO5)cc3C(=O)N([C@@H](C)CO)C[C@@H]2C)cc1,1,3,2.8,8.1
